# TRPML1 blocker = human mucolipin-1 channel inhibition; 390,000 compounds, 0.02% hits; Q9GZU1; TRPML1-inducible cells, Ca2+ dye fluorescence, FDSS; hits give low values; inhibition of EC80 agonist-evoked calcium signal; activity change, negative = inhibition, % (concentration not given with the values); in the data active means activity change below about -50%; inconclusive means about -30% to -50%; inactive means above about -30%;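 also: stimulus is agonist 54-4 at its EC80 concentration; % is scaled to controls: 0 for no effect and ±100 for the full control effect; the text of the record puts the active cut at -80%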
#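 Tet-induced TRPML1-DL cells loaded with Ca8 no-wash calcium dye were read kinetically on FDSS. Compound addition was followed by EC80 agonist 54-4 (4 uM final); inhibition was read over 110 s.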
# Sfp PPTase inh = blocks B. subtilis Sfp PPTase activity | Q9F4F7 | Biochemical Sfp PPTase activity, qHTS | Potency, µM, for inactives: max response, negative = inhibition, most hits filed as inhibitors | 310,000 compounds, 3.5% hits; active = well fitted inhibition curve with a large enough effect; inconclusive = small, poorly fitted or top-dose-only effect, or another doubt; inactive = no such curve, though single readings can be large or run the other way;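 also: the enzyme is Sfp with the accession as filed and its product quenches rhodamine fluorescence; potency is read from the fitted curve at half-maximal effect; 0% = enzyme reaction without inhibitor and -100% = no enzyme wells; top concentration of the series not given in the record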
#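 Step 1, compound plus 15 nM Sfp-PPTase, 15 min, room temperature. Step 2, add rhodamine-CoA (5 uM) and BHQ-2-YbbR (12.5 uM). Step 3, read 525/598 nm fluorescence at 0 and 30 min.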
# gsp agonist = gsp mutant agonism | AID 624287 | 340,000 compounds, 0.13% hits | Potency, µM (series often up to 76.9 µM), for inactives: top-dose activation (cAMP increase), usual class: activators | gsp mutant cells, cAMP HTRF, 30 min; control for the full effect not named in the record; active = well fitted activation curve with a large enough effect; inconclusive = small, poorly fitted or top-dose-only effect, or another doubt; inactive = no such curve, though single readings can be large or run the other way; cell line not stated here;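 also: phosphodiesterase inhibitor Ro 20-1724 added with compounds to block cAMP breakdown; potency is read from the fitted curve at half-maximal effect; nearly all actives have a fitted effect of over 60% in size; about a fifth of the inactives were tested at one dose only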
#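 Cells stably selected in G418 were plated at 2000/well, grown 16-24 hr, then given compounds in DMSO with the PDE inhibitor […] (300 uM solution added) for 30 min at 37C; cAMP was read by HTRF.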
# Menin-MLL FL inh = displaces fluorescein MLL peptide from human menin; Fluorescence polarization, fluorescein-MLL peptide displacement from menin; FP activity change, % at 61.4 µM; 290,000 tested, under 10 active; inconclusive = falling polarisation curve, or a change in total fluorescence; inactive = total fluorescence flat and polarisation flat or rising; no compound was filed as active; the % refers to the polarisation; negative = inhibition;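 also: % of control where 0% means no effect; inhibitors lower the polarisation; unlabelled MLL peptide was the positive control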
# TRPV1 potentiator = human TRPV1 potentiation; Q8NER1; TRPV1-expressing cells, Fluo-8 calcium influx, capsaicin EC20 potentiation; host cell line not named in the record; control for the full effect not named in the record; potentiation, % at 8.33 µM; 320,000 compounds, 0.02% hits; active means potentiation above 80%; inconclusive means 30% to 80%; inactive means below 30%; also: 0% is about no effect
# Target sequence (Q8NER1 whole entry, looked up): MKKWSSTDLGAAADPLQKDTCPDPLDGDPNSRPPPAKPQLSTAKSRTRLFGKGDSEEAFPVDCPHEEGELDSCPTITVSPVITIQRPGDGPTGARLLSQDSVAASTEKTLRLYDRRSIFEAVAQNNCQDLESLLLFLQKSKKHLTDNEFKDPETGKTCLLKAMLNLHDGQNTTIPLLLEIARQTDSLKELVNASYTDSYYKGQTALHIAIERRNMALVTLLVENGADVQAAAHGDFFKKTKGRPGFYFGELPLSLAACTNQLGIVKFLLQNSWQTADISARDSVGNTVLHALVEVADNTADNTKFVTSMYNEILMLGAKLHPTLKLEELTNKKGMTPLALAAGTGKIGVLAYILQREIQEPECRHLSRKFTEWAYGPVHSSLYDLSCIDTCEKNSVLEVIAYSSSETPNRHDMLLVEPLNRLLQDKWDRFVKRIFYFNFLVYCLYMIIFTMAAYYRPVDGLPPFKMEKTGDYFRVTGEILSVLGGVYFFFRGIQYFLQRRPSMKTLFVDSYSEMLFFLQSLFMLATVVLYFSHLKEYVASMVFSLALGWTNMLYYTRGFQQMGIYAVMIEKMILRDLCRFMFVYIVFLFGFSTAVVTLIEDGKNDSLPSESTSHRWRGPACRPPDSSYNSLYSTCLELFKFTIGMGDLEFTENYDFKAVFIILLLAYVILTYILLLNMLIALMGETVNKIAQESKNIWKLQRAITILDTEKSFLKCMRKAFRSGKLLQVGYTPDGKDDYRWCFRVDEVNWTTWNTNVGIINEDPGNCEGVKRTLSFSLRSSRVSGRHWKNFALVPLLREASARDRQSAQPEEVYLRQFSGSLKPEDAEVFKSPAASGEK
#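 Fluo-8 calcium influx in TRPV1-expressing cells, kinetic read (ex 480/em 520 nm). Compound added and read 3 min for agonist activity, followed by capsaicin at EC20 final and 2 min further read for enhancement.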
# ClpP mod = qHTS Assay for Activators of ClpP | ATP-dependent Clp protease proteolytic subunit (Bacillus subtilis (strain 168)), P80244 | purified B. subtilis ClpP, FRET peptide cleavage, 20 min | Potency, µM (doses to about 57.5 µM), for the others: top-dose activity change, negative = active | 340,000 compounds, 1.9% hits; active = well fitted falling curve with a large enough effect; inconclusive = small, poorly fitted or top-dose-only effect; inactive = no such curve, though single readings can be large or run the other way; also: potency is read from the fitted curve at half-maximal effect; the source files actives as falling curves though it sought activators and does not explain the sign; nearly all actives have a fitted effect of over 65% in size; many hits overshoot -100%
# Target sequence (P80244 whole entry, looked up): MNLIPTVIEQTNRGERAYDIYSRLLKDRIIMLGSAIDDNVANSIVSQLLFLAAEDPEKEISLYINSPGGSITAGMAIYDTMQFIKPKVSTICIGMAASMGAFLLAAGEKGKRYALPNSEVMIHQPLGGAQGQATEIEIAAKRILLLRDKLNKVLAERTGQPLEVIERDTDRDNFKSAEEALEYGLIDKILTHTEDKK
#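 ClpP 10 microg/mL final, pH 8 Tris/KCl buffer with BSA, glycerol, Tween-20; compound pinned in; FRET-FV substrate; RT 20 min; Ex320/Em430; ΔFRET vs ADEP 5.8 microM, DMSO, no enzyme.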
# gsp antagonist = antagonists of gsp mutant (McCune-Albright syndrome). gsp-mutant cells, cAMP HTRF, 30 min; control for the full effect not named in the record. Potency, µM (series often up to 76.9 µM), without a hit: at the highest dose activity change, negative = inhibition, hits mostly inhibitors. 340,000 compounds, 0.4% hits; active = falling curve of any shape with a large fitted effect; inconclusive = falling curve, mostly with a smaller effect; inactive = flat or rising curve; cell line not stated here;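 also: intracellular cAMP measured with PDE inhibitor Ro 20-1724 present during compound exposure; potency is read from the fitted curve at half-maximal effect; % is scaled to controls: 0 for no effect and ±100 for the full control effect; nearly all actives have a fitted effect of over 65% in size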
#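 Cells in G418 medium, seeded 16-24 h, 37C; buffer exchange to DPBS + 1 mM CaCl2, 0.5 mM MgCl2, 0.05% BSA; cpds in DMSO + […] (300 uM stock), 30 min 37C; HTRF cAMP detection.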
# * hit, by the source's call; ? = inconclusive; · = no result given; [ ] = another dose, or the depositor's remark.
SMILES,TRPML1 blocker,Sfp PPTase inh,gsp agonist,Menin-MLL FL inh,TRPV1 potentiator,ClpP mod,gsp antagonist
O=C1c2ccccc2S(=O)(=O)N1Cc1cccc(S(=O)(=O)N2CCOCC2)c1,-3.0,5.0%,0.5%,0.4,-1.8,1.6%,3.0%
O=C(CNc1cc(S(=O)(=O)N2CCOCC2)ccc1NCC1CCCO1)Nc1ccc(F)c(F)c1 (stereo not drawn),6.7,-1.0%,-5.0%[15.4 µM],·,-13.3,0.4%,-15.1%
COc1ccccc1C(=O)Nc1ccc2c(c1)nc1n2CCSC1,-8.0,1.2%,-9.3%,4.0,15.9,9.8%,-3.2%
COCCCNc1nc2nonc2nc1NCCSC,·,13.0%,-4.7%,1.0,-3.6,-0.7%,-0.5%
Cc1cc(C)c(C(=O)COC(=O)c2nn(C)c(=O)c3ccccc23)cc1C,0.1,·,-4.5%,·,18.7,1.5%,?
Cc1ccc(NC(=O)NC2CCCCC2)c(C)c1,3.0,-0.7%,-45.2%[inhibitor],11.3,0.7,0.9%,17.3%
O=C1C=CC(=O)N1Cc1ccccc1,26.1,17.8µM*,·,-0.3,2.4,-4.6%,-6.9%
Cc1ccc(NC(=O)COC(=O)C2CC(=O)N(Cc3ccccc3)C2)cc1S(=O)(=O)N(C)C (stereo not drawn),-22.2,12.4%,-0.8%[15.4 µM],-4.8,-1.7,-1.0%,12.1%
O=C(CSc1ccc2nnc(-c3ccncc3)n2n1)NCc1ccco1,?,-27.7%,17.8µM*,-2.6,-15.9,-14.3%,10.3%
CS(=O)(=O)N(CCc1ccccc1)CC(=O)NCC1CCCO1 (stereo not drawn),5.6,-18.4%,10.6%,3.0,-13.2,1.2%,19.6%
C/C(=N\NC(=O)c1nc2ccccn2c1C)c1cc2ccccc2o1,22.1,17.0%,-1.5%[15.4 µM],4.0,3.5,0.1%,-17.5%
CCC(C)NC(=O)c1ccc(CS(=O)(=O)c2ccc(OC)cc2)o1 (stereo not drawn),2.7,12.4%,-19.6%,1.4,2.5,2.8%,-1.0%
Cc1ccc(OCCCCN2CCC(C)CC2)c(Br)c1,6.6,-19.8%,1.4%,-1.1,?,-0.7%,11.7%
CSCCCNC(=O)c1ccc(OC2CCN(C(=O)c3cccnc3)CC2)cc1,-11.7,16.6%,-38.2%[inhibitor],3.4,24.0,0.5%,-1.4%
O=C(c1ccc(NS(=O)(=O)c2ccc(F)cc2)cc1)N1CCC1,-5.2,·,-12.3%,·,-9.3,0.3%,-0.5%
O=C(CCC(=O)N1CCN(c2cccc(Cl)c2)CC1)c1cccs1,11.7,·,8.5%[15.4 µM],·,-20.6,·,-1.6%
COc1cc(C(=O)NCC(=O)OCC(=O)Nc2nnc(-c3ccccc3)o2)cc(OC)c1OC,6.1,·,-49.3%[inhibitor],·,-4.2,-1.6%,9.7%
CCOc1cc(/C=C2/C(=O)ON=C2C)ccc1OCc1ccc(F)cc1,6.8,50.1µM*,-40.7%[inhibitor],4.4,-8.7,-1.3%,-12.0%
COc1ccc(C2c3c(oc4ccccc4c3=O)C(=O)N2CCCN2CCOCC2)cc1 (stereo not drawn),-10.4,·,15.7%,·,·,-1.9%,-3.9%
CCc1ccc(NC(=O)Cn2nnc(C(=O)NCCc3ccc(OC)c(OC)c3)c2N)cc1,-7.4,9.3%,17.0%,-8.8,-0.4,-0.4%,4.7%
CCNc1cc(S(=O)(=O)C(F)(F)F)ccc1N,18.9,-1.2%,-7.8%,1.5,-4.9,1.2%,-3.6%
Cc1ccc(S(=O)(=O)Oc2cccc([N+](=O)[O-])c2)cc1,13.5,·,1.1%,·,·,·,-6.2%
COc1cc(NC(=O)c2cc([N+](=O)[O-])ccc2Br)ccc1NC(=O)c1ccco1,8.9,-17.0%,-0.3%[15.4 µM],5.6,29.0,-8.5%,?
O=c1[nH]c(C2CCN(S(=O)(=O)c3ccccc3F)CC2)nc2c1nnn2Cc1ccc(OC(F)(F)F)cc1,-0.2,-24.0%,5.1%,2.0,15.0,-3.2%,-18.2%
Cc1ccc(CSc2nccc(-c3c(C)nc4ccccn34)n2)cc1,-1.0,-2.8%,9.3%,3.1,-1.2,-8.4%,-7.1%

# Looked up above.
# C/C(=N\NC(=O)c1nc2ccccn2c1C)c1cc2ccccc2o1 in TRPML1 blocker shows 22.1
# CCC(C)NC(=O)c1ccc(CS(=O)(=O)c2ccc(OC)cc2)o1 (stereo not drawn) in Menin-MLL FL inh shows 1.4

# Next part
SMILES,TRPML1 blocker,Sfp PPTase inh,gsp agonist,Menin-MLL FL inh,TRPV1 potentiator,ClpP mod,gsp antagonist
Cc1cccc(C2=NOC(=O)/C2=C\c2ccccc2F)c1,-2.1,·,10.2%,·,4.5,-11.7%,5.7%
O=C(NCC1CCCO1)c1ccccc1OCc1ccc(F)cc1 (stereo not drawn),-7.7,·,-15.0%,·,-5.9,0.6%,9.5%
COc1ccc(S(=O)(=O)NC(C)C(=O)NCc2ccco2)cc1OC (stereo not drawn),13.9,12.8%,1.9%,-3.6,0.6,·,13.1%
CC(C)(C)OC(=O)N1CCC(C(=O)NNC(=O)c2ccc(Cl)cc2Cl)CC1,-26.7,5.9%,?,·,11.2,-1.1%,3.8%
Cn1c(N)c(C(=O)COC(=O)CCc2ccccc2)c(=O)n(C)c1=O,1.2,3.9%,18.0%[15.4 µM],-1.0,-3.1,·,15.1%
COc1cc(C(=O)NNC(=O)CN2C(=O)NC3(CCCC3)C2=O)cc(OC)c1OC,-21.1,·,2.7%,·,0.1,-0.6%,-12.3%
CN(CCC#N)C(=O)c1ccc(CNS(=O)(=O)c2ccc(F)cc2)cc1,27.4,14.6%,4.4%,-0.6,24.4,-1.5%,13.6%
CC(NC(=O)CCNC(=O)c1ccccc1Cl)c1ccc(-n2ccnc2)cc1 (stereo not drawn),2.4,12.7%,-54.4%[inhibitor],·,14.0,-0.4%,-16.5%
CC(=O)Nc1ccc(S(=O)(=O)N(C)c2ccc(OCC(=O)NCCc3ccccc3F)cc2)cc1,10.9,·,23.9%,·,·,-3.5%,?
Cc1cc(C(=O)COc2ccccc2C#N)c(C)n1C1CC1,-10.6,·,13.4%[15.4 µM],·,-7.7,·,5.7%
COc1cc(/C=N/N=C(/C(=O)c2ccccc2)c2ccccc2)cc(OC)c1O,-3.4,-15.5%,3.2%,-2.7,-12.0,-3.5%,-17.3%
CCOc1ccccc1/C=N/NC(=O)c1cccc(S(=O)(=O)N(CC)CC)c1,-1.9,16.5%,14.5%,-3.6,4.5,·,-1.2%
CCN(CC)C(=O)Cn1cc(S(=O)(=O)CC(=O)NCCc2ccccc2)c2ccccc21,-7.1,1.6%,1.9%,·,3.9,0.5%,2.8%
O=C(NCC1CCCO1)c1ccc2c(c1)C(=O)N(c1cccc([N+](=O)[O-])c1)C2=O (stereo not drawn),10.3,2.6%,12.9%,0.1,10.0,·,2.4%
CN(C)/C=N/C(=S)Nc1ccc(Br)cc1F,20.1,-22.0%,-3.0%,-2.1,-16.3,-3.8%,-9.7%
CCOc1ccccc1NC(=O)C1CCN(S(=O)(=O)c2ccc(OC)c(OC)c2)CC1,-25.7,-6.7%,-2.0%,-0.6,?,1.0%,-3.1%
O=C(c1cc2ccccc2c(=O)o1)N1CCc2ccccc2C1,-0.2,13.0%,-1.1%,-3.3,-16.4,-11.2%,6.6%
Cc1ccc(S(=O)(=O)NCCN2CCOCC2)cc1,1.5,4.2%,-5.1%,3.1,-3.5,1.3%,5.4%
O=C(NNC(=O)c1cccs1)c1ccc(Cl)nc1,28.7,·,10.4%[15.4 µM],·,15.0,-10.0%,5.7%
Cc1ccc(C(=O)O/N=C(\N)c2ccccc2)c(Cl)c1,-1.3,-0.9%,-1.9%[15.4 µM],4.2,-4.7,0.6%,-7.2%
COCCCNC(=O)c1ccc2c3c(onc13)-c1ccccc1C2=O,-6.9,56.2µM*,-1.2%[15.4 µM],?,3.7,0.6%,?
Cc1cc2ccccn2c1C(=O)Nc1ccc(Cl)cc1,15.7,8.2%,?,-2.3,-12.9,·,-0.7%
COc1ccccc1CN(C)C(=O)CNC(=O)c1cccc(Cl)c1,1.2,14.3%,16.6%[15.4 µM],1.7,19.6,·,-5.4%
O=C(CN1C(=O)NC2(CCCC2)C1=O)NNC(=O)c1ccc(Cl)cc1,27.4,·,1.6%,·,3.7,1.5%,5.6%
CCSC1(SCC)N=C(N)C2(C#N)C(c3ccc(OC)c(OC)c3OC)C12C#N (stereo not drawn),9.7,-48.7%,11.8%,0.8,-2.7,0.7%,-0.9%

# The list continues:
SMILES,TRPML1 blocker,Sfp PPTase inh,gsp agonist,Menin-MLL FL inh,TRPV1 potentiator,ClpP mod,gsp antagonist
COC(=O)c1[nH]c2ccc(F)cc2c1NS(=O)(=O)c1ccc(F)c(C)c1,-9.6,-7.2%,-2.6%,3.1,-7.4,-15.9%,4.9%
COc1cc(C)nc(Oc2ccc(/C=N/O)cc2)n1,-0.7,7.5%,2.4%,1.9,1.6,-0.4%,2.7%
O=C(NCc1cccnc1)c1nc(-c2ccccc2)n(-c2ccccc2)n1,37.0,13.5%,-20.7%,·,-2.0,?,2.1%
O=C(O)c1ccc2c(c1)C(=O)N(c1ccc(Cl)cn1)C2=O,-6.9,15.6%,-65.7%[inhibitor],5.0,-0.4,-2.3%,8.0%
Cc1ccc(SCCC(=O)OC(C)C(=O)Nc2ccccc2)cc1 (stereo not drawn),6.9,·,0.0%,·,-18.8,-17.3%,4.0%
Cn1ccnc1SCC(=O)NC1CCCC1,7.2,4.4%,-50.4%[15.4 µM],-0.8,-2.5,·,14.2%
CC(C)C(=O)NNS(=O)(=O)c1ccccc1[N+](=O)[O-],2.4,3.2%,21.1%,1.4,-2.6,-2.1%,7.0%
Cc1ccc2c(C)c(C(=O)N3CCCCC3CO)oc2c1C (stereo not drawn),-13.7,3.5%,5.3%,-1.3,-23.0,-0.5%,4.1%
COc1cc(CC(=O)OCC(=O)Nc2cc([N+](=O)[O-])ccc2F)cc(OC)c1OC,-0.9,-15.5%,0.0%,7.8,15.2,-2.3%,-21.6%
CC(CN1CCCCC1)OC(=O)CCc1ccccc1 (stereo not drawn),-14.6,-9.2%,?,-0.5,1.8,·,5.3%

# Screening results: PubChem, National Center for Advancing Translational Sciences (NCATS)

# Rows were taken by chance; any-hit rate near 4.9%.
